# Screens deposited in PubChem by ICCB-Longwood Screening Facility, Harvard Medical School.
# BmaI1 = BmaI1 acyl-homoserine lactone synthase inhibition – biochemical, fluorescence intensity, with counterscreen (AID 720554) | BmaI1 enzyme assay, fluorescence intensity; stronger effect = higher value; test concentration not given here; a few actives read low; strong numbers were not always called active | inhibition, % | 0.4% of 12,000 active;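 active = both replicates within 2 robust z-scores of the inhibited control and a quiet counterscreen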;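 also: 0% = uninhibited enzyme and 100% = inhibited control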
# BmaI1 counterscreen = second read-out of BmaI1, no call of its own (marks repeat the call); inhibition, %; measured here: counterscreen; design of the counterscreen not given here;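 first of two replicates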
# An asterisk follows results filed as active. The list is partial (hit frequency here may not be typical).
SMILES,BmaI1,BmaI1 counterscreen
O=C(CSc1nc2ccccc2n1CCc1ccccc1)c1cccs1,-6,0
Nn1c(SCc2cc(=O)oc3cc4c(cc23)CCC4)nnc1-c1cccnc1,4,2
COc1cc(C#N)ccc1OCC(=O)NCC(C)C,14,18
CN1C(=O)C(O)(c2sc(N)nc2-c2ccccc2)c2ccccc21 (configuration not stated),18,12
O=C1CCN(C(C(=O)Nc2ccc(F)cc2)c2ccccc2)CC1 (configuration not stated),5,0
CCNc1nc2cc(C)nn2c2ccccc12,20,24
O=C1CSC(c2cn(-c3ccccc3)nc2-c2ccccc2)N1CCCN1CCOCC1 (configuration not stated),6,10
CC(C)N(CC(N)=O)C(=O)COc1ccccc1Cc1ccccc1,10,3
CN(C)S(=O)(=O)c1cccc(C(=O)OCCN2C(=O)c3ccccc3C2=O)c1,31,0
NC(=O)Nc1ccc(C(=O)OCC(=O)NCc2ccccc2)cc1,16,13
COc1ccc(Cn2c(O)c(/C=N/Nc3nc(C)cc(=O)[nH]3)c3ccccc3c2=O)cc1,82,36
CCOC(=O)C1=C(CSc2nnnn2-c2ccccc2)NC(=O)NC1C (configuration not stated),4,-3
CC1CCCCN1C(=O)CSc1nnc2c(Cl)cc(Cl)cn12 (configuration not stated),12,2
CN(C)S(=O)(=O)c1cccc(CN2CCCc3ccccc32)c1,-28,-3
C=CCNc1nc(C(=O)OCc2nnc(-c3ccc(Br)cc3)o2)cs1,10,12

# Copied from the list.
# Entry for `CC(C)N(CC(N)=O)C(=O)COc1ccccc1Cc1ccccc1` in BmaI1: 10
# Entry for `CN(C)S(=O)(=O)c1cccc(C(=O)OCCN2C(=O)c3ccccc3C2=O)c1` in BmaI1 counterscreen: 0
# Entry for `Nn1c(SCc2cc(=O)oc3cc4c(cc23)CCC4)nnc1-c1cccnc1` in BmaI1: 4
# Entry for `CC1CCCCN1C(=O)CSc1nnc2c(Cl)cc(Cl)cn12` (configuration not stated) in BmaI1 counterscreen: 2
# Entry for `C=CCNc1nc(C(=O)OCc2nnc(-c3ccc(Br)cc3)o2)cs1` in BmaI1: 10
# Entry for `CCNc1nc2cc(C)nn2c2ccccc12` in BmaI1 counterscreen: 24

# Later entries.
SMILES,BmaI1,BmaI1 counterscreen
CC1CCN(C(=O)COC(=O)c2ccccc2O)CC1,14,8
c1ccc2c(OCCCCCn3ccnc3)cccc2c1,1,7
CS(=O)(=O)Nc1ccc(C(=O)CSc2ccc3c(c2)OCCO3)cc1,22,6
Cc1ccc(C2=NN(C(=O)CSc3nc4nc(C)cc(C)n4n3)C(c3ccco3)C2)cc1 (configuration not stated),-4,-9
Cc1ccccc1OCC(O)CN(Cc1ccccc1)Cc1ccco1 (configuration not stated),18,19
C#CC(CC)(CC)NC(=O)c1ccccc1Br,32,3
NC(=O)Nc1ccc(C(=O)Nc2ccc3c(c2)CCC3)cc1,14,10
CC1CN(C(=O)C(C)N(C)Cc2nc3ccccc3c(=O)[nH]2)CC(C)O1 (configuration not stated),-8,-18
COC(=O)C1Cc2ccccc2CN1Cc1c(C)n(C)n(-c2ccccc2)c1=O (configuration not stated),3,0
N#Cc1c(N)oc(-c2cccs2)c1-c1cccs1,64,52
O=S(=O)(c1ccc(F)c(F)c1)N(c1ccc2c(c1)OCO2)S(=O)(=O)c1ccc(F)c(F)c1,14,8
CCOC(=O)c1c(COC(=O)/C=C/c2ccc(C)o2)nc2ccccc2c1C,11,5
COCc1c(C(=O)NCc2cccs2)oc2ccccc12,7,0
CC1CCC2(CC1)NC(=O)N(CN(C)Cc1cccs1)C2=O (configuration not stated),12,10
O=c1c(CCc2ccccc2)nnc2c3ccccc3ncn12,16,14

# Another view of 2 compounds above:
SMILES: COC(=O)C1Cc2ccccc2CN1Cc1c(C)n(C)n(-c2ccccc2)c1=O (configuration not stated)
  BmaI1: 3 | BmaI1 counterscreen: 0

SMILES: N#Cc1c(N)oc(-c2cccs2)c1-c1cccs1
  BmaI1: 64 | BmaI1 counterscreen: 52

# Other structures follow.
SMILES,BmaI1,BmaI1 counterscreen
CN1/C(=C\C=Nc2ccccc2N)C(C)(C)c2ccccc21,-9,-25
Cn1c(=NC(=O)CSc2nnc(-c3ccccc3)o2)sc2ccccc21,4,6
CC(=O)Nc1cc2ccccc2cc1C(=O)O,14,-1
COc1ccc(C(=O)NCC(=O)N2CCc3ccccc3C2)cc1,7,3
O=C(OCc1csc(Nc2ccccc2)n1)c1cc(NS(=O)(=O)c2cccs2)ccc1O,27,39
COc1ccc2c(c1)C(=O)N(c1ccc(C)cc1C)C(=O)/C2=C/N1CCOCC1,11,-2
COC(=O)C1CN(Cc2csc(NC(C)=O)n2)c2ccccc2O1 (configuration not stated),22,-6
O=C(/C=C/c1nnc2c3ccccc3cnn12)OCc1nnc(-c2cc3c(s2)CCCC3)o1,17,8
NC(=S)NCc1ccccc1,4,6
O=C(c1cnn(C(=O)CN2C(=O)COc3ccccc32)c1)c1ccccc1O,-6,-10
CC(Sc1nc2ccccc2c(=O)n1Cc1ccco1)C(=O)Nc1ccc2c(c1)OCCO2 (configuration not stated),12,-2
NNC(=O)c1cccs1,-106,-69
CC(C)CC(NC(=O)c1ccc(Cl)cc1Cl)C(=O)N1CCN(c2ncccn2)CC1 (configuration not stated),13,10
CC(Nc1ccc(N2CCOCC2)cc1)C(=O)Nc1ccc(F)cc1Cl (configuration not stated),70,18
CN(C)CCc1c[nH]c2ccc(C[C@H]3COC(=O)N3)cc12,60,14

# Four entries from above, with tabs:
Structure	BmaI1	BmaI1 counterscreen
Nn1c(SCc2cc(=O)oc3cc4c(cc23)CCC4)nnc1-c1cccnc1	4	2
COc1cc(C#N)ccc1OCC(=O)NCC(C)C	14	18
CN1C(=O)C(O)(c2sc(N)nc2-c2ccccc2)c2ccccc21 (configuration not stated)	18	12
O=C1CCN(C(C(=O)Nc2ccc(F)cc2)c2ccccc2)CC1 (configuration not stated)	5	0

# (further entries)
SMILES,BmaI1,BmaI1 counterscreen
COc1ccc(OCCC(=O)Oc2ccc(OC)cc2)cc1,32,4
COCCn1c(SCc2nc3ccccc3c(=O)[nH]2)nnc1-c1ccncc1,12,9
CCS(=O)(=O)N1Cc2ccccc2CC1C(=O)OCc1ccc(C#N)cc1 (configuration not stated),6,5
CN(CC(=O)Nc1ccc(F)cc1)C(=O)CSc1nnc2n1CCCCC2,18,4
Cc1csc(=Nc2ccccc2F)n1/N=C/c1ccncc1,89*,-3.0*
CCN(C(C)=O)c1nc(CSc2n[nH]c(N)n2)cs1,6,30
CC1CCCC(C)N1C(=O)COC(=O)c1cc(=O)c2ccccc2o1 (configuration not stated),6,5
Nc1nc2ccc(OC(F)(F)F)cc2s1,1,8
O=C(OCc1nc2ccccc2s1)C1COc2ccccc2O1 (configuration not stated),22,7
CC(=O)Nc1sc(C)c(C)c1C(=O)OCC(=O)N1CCOCC1,-5,-2
CCCn1c(SCC(=O)N(C2=CCCCC2)C2CC2)n[nH]c1=O,8,2
CSc1nc2ccccc2n1CC(=O)N1CCc2ccccc21,10,4
N#Cc1ccc(COC(=O)CCN2C(=O)COc3ccccc32)cc1,14,3
CC(OC(=O)c1ccc2c(c1)S(=O)(=O)c1ccccc1C2=O)C(N)=O (configuration not stated),-6,-2
N=C1c2ccccc2CN1Cc1ccc(CN2Cc3ccccc3C2=N)cc1,6,7
N/C(CC(=O)Nc1ccccn1)=N\O,44,21
C=CCn1c(SC(C)C(=O)N2CCCC2)nc2scc(C3CC3)c2c1=O (configuration not stated),14,4
COc1cccc(NC(=O)c2ccccc2N(C)C(=O)CCC(=O)Nc2cccnc2)c1,10,6
N#Cc1ccc(CSc2nnc(N3CCOCC3)n2-c2ccccc2)cc1,14,0
CN(C(=S)NCc1ccc2c(c1)OCO2)C1CCS(=O)(=O)C1 (configuration not stated),18,2
CCOC(=O)c1sc(N)c(C#N)c1COC(=O)CC1Sc2ccccc2NC1=O (configuration not stated),16,6
CCOC(=O)CSc1nnc(Nc2ccccc2C)s1,64,6
CCOC(=O)c1c(C)oc2c1c(CN1CCN(c3ccccc3)CC1)c(O)c1ccccc12,76,46
CCOc1ccc(-n2c(CSc3nc4ccccc4o3)nc3ccccc3c2=O)cc1,6,2
O=C1/C(=C/c2ccccc2OC(F)F)CS(=O)(=O)c2ccc(F)cc21,14,10
CN(C)c1cccc(C(=O)N/N=C2\CCSc3ccc(F)cc32)c1,14,6
CC(Sc1nncn1C)C(=O)Nc1ccc(C#N)cc1 (configuration not stated),1,2
C=CCn1c(O)c2ccc(C(=O)N=C3N=c4ccccc4=N3)cc2c1O,5,6
CCCn1c(C(F)(F)F)nc2ccccc21,0,1
CCOc1ccc(NC2=NCCCS2)cc1,2,10

# In the list so far, these contain a CF3 group.
SMILES,BmaI1,BmaI1 counterscreen
Nc1nc2ccc(OC(F)(F)F)cc2s1,1,8
CCCn1c(C(F)(F)F)nc2ccccc21,0,1

# Additional records.
SMILES,BmaI1,BmaI1 counterscreen
O=C1N(c2ccc3c(c2)OCO3)C(c2ccc(F)cc2)C1(F)F (configuration not stated),14,12
CC1CSC(N(C(=O)CN2CSCC2=O)c2ccc(Cl)cc2)=N1 (configuration not stated),1,4
O=C(/C=C/c1ccc(Br)o1)N(Cc1nc2ccccc2c(=O)[nH]1)CC1CCCO1 (configuration not stated),22,10
Oc1ccc2c3c1OC1C(O)CC[C@@]4(O)[C@@H](C2)N(CC2CCC2)CC[C@]314 (some centres not stated),28,22
Cc1csc(C(C#N)C(=O)CSc2nc3ccccc3o2)n1 (configuration not stated),32,10
Cc1cnc(C(=O)OCc2c(C)cc(C(C)(C)C)cc2C)cn1,0,4
Cc1csc(C(C#N)C(=O)CSc2ccc3c(c2)OCCO3)n1 (configuration not stated),16,0
Nc1ccc(S(=O)(=O)CCSS(=O)(=O)c2ccc(N)cc2)cc1,88*,0.5*
CCOc1ccc(-n2c(SCC(=O)NC(=O)CN3CCCC3=O)nc3ccccc32)cc1,18,-3
N#Cc1ccc(COC(=O)CN2C(=O)COc3ccccc32)cc1,2,3
O=C1CCc2ccc(OCCCCN3CCN(c4cccc(Cl)c4Cl)CC3)cc2N1,-5,-2
Cc1nc(=O)c(-c2ccccc2)c(C)n1CCCCCC(=O)O,10,3
CC(c1cc2ccccc2s1)N(O)C(N)=O (configuration not stated),64,24
Cc1nn(Cc2ccccc2Cl)c(C)c1C(=O)NC1=NCCS1,6,2
CCCCn1nnnc1COC(=O)CCc1c[nH]c2ccccc12,9,8
COc1ccc2c(COc3cccc(F)c3)cc(=O)oc2c1,18,9
NC(=O)c1ccsc1NC(=O)COC(=O)c1ccccc1,24,19
Cc1c(CN2CCN(c3cccc(C(F)(F)F)c3)CC2)c(=O)n(-c2ccccc2)n1C,27,7
CC(C)NCC(O)c1ccc(NS(C)(=O)=O)cc1 (configuration not stated),-8,-6
CC1CC(C)CN(C(=O)COC(=O)Cc2coc3cc(O)ccc23)C1 (configuration not stated),61,28
Cc1ccc(Nc2nc(CSc3nnc(C)n3Cc3ccccc3)cs2)cc1,46,10
Cc1ccc(/C=C/C(=O)N[C@@H](Cc2ccccc2)c2nc3ccccc3[nH]2)o1,55,13
CC(C)CSc1nc2ccccc2c(=O)[nH]1,4,2
Cc1ccc(C(=O)C(C)OC(=O)Cn2c(C)csc2=O)cc1 (configuration not stated),12,10
Cc1ccc(S(=O)(=O)NCCC(=O)N2CCC2)cc1C,9,1
CNC(=S)N/N=C(\C)c1ccc(-n2ccnc2)cc1,-2,11
S=P(Nn1cnnc1)(c1ccccc1)c1ccccc1,-16,-10
CC(Oc1ccccc1F)c1nnc(SCc2ccc(C#N)cc2)o1 (configuration not stated),14,10
COc1ccc(CN(C)CC(O)COc2ccc(C#N)cc2)cc1 (configuration not stated),13,4
O=C(CSc1nncs1)NCCCc1ccccc1,-10,-7
Cc1cc(C(=O)COc2ccccc2C#N)c(C)n1-c1cccc(S(=O)(=O)N2CCOCC2)c1,14,15
O=C(COc1ccc2ccc(=O)oc2c1)c1ccc2c(c1)OCCO2,11,5
Cc1cccc(OCc2nnc3n2-c2ccccc2SC3)c1,-2,-6
Cc1ccc(CC(S)C(=O)O)cc1C (configuration not stated),18,2
O=C(c1n[nH]c(=O)c2ccccc12)N1CCC(Cc2ccccc2)CC1,10,-2
CN(C)S(=O)(=O)c1cccc(C(=O)Nc2nc3ccc(F)cc3s2)c1,14,8
CC(=O)Nc1sc2c(c1C(=O)OCC(=O)c1cc(C)n(C3CC3)c1C)CCCC2,12,6
O=C1c2ccccc2C(=O)N1CC(c1ccco1)N1CCCCC1 (configuration not stated),3,2
Cc1ccccc1OCc1nc(SCC(=O)NC2CCCC2)n[nH]1,4,6
N#CCSc1[nH]c(=O)c(-c2nc(-c3ccccc3)cs2)cc1C#N,14,12
COCCn1c(-c2ccc3c(c2)NC(=O)CO3)csc1=Nc1ccccc1,10,30
CNC(=O)NC(=O)CSc1nc2ccccc2s1,0,0
CCNc1nc(NCC)n2c(SCC(=O)N3CC4(C)CC3CC(C)(C)C4)nnc2n1 (configuration not stated),10,2
COc1ccccc1CNC(=O)CN1NS(=O)(=O)c2ccccc2C1=O,-4,-3
